EPAC2 ant val = human EPAC2 antagonism, validation. Potency, µM (series often up to 112 µM), without a hit: top-dose activity, negative = inhibition, hits mostly inhibitors. 1.7% of 16,000 active. EPAC2 Rap1B BODIPY-GDP exchange, fluorescence. Q8WZA2; active = well fitted inhibition curve with a large enough effect; inconclusive = small, poorly fitted or top-dose-only effect; inactive = no such curve, though single readings can be large or run the other way;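 also: 100% = activation by cAMP agonist control; nearly all actives have a fitted effect of over 40% in size; the record reuses the description of the EPAC1 agonist screen; inactives centre near -10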
Target sequence (Q8WZA2 whole entry, looked up): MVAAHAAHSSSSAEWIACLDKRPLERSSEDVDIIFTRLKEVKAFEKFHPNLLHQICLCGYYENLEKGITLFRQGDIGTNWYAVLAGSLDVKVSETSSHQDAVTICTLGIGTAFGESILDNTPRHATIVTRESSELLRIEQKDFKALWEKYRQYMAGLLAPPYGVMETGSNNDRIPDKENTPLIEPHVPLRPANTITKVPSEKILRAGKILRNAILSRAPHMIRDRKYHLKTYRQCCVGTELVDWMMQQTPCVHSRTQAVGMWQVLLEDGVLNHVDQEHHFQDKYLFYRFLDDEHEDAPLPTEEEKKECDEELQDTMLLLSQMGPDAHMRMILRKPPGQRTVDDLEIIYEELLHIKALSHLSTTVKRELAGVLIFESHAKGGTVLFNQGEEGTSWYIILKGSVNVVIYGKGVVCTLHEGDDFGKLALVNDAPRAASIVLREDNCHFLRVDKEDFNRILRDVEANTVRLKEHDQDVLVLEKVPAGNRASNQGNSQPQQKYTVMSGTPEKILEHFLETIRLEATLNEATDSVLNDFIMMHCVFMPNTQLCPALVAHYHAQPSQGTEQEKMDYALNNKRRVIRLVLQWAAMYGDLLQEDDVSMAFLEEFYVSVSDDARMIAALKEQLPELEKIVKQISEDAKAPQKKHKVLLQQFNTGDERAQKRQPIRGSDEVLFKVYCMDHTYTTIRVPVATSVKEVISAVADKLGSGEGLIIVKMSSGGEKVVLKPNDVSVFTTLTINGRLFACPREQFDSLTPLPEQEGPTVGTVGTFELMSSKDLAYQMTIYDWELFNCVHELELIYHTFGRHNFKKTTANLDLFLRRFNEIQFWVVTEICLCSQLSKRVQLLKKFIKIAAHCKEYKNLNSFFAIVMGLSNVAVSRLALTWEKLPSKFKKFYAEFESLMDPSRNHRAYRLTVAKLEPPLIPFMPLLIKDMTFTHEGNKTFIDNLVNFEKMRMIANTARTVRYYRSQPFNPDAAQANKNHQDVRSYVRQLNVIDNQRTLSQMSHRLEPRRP
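Fluorescent exchange read-out: 100 nM EPAC2 with 250 nM RAP1B–BODIPY-GDP and 50 uM GDP; BODIPY-GDP release lowers fluorescence. Read at 480/540 nm every 5 min for 30 min at room temperature; normalized to 6.5 mM cAMP.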
The depositor's hits bear a star; ? = inconclusive; & = joins results of further samples; ! = a repeat was not active; [ ] = remark or other dose. Potency is read from the fitted curve at half-maximal effect. The list is partial (hit frequency here may not be typical).

SMILES	EPAC2 ant val
CCCCC[C@H](O)/C=C/[C@@H]1[C@H]2C/C(=C/CCCC(=O)O)C[C@H]2C[C@H]1O	-17%
CCCCC[C@H](O)/C=C/[C@H]1[C@H](O)CC(=O)[C@@H]1C/C=C\CCCC(=O)O	-11%
CCCCC/C=C\C[C@@H](O)/C=C/C=C/C=C\[C@@H](O)CCCC(=O)O	6%[1.17 µM]
COCCn1c(=O)c(-c2cn(C)c3ccccc23)nc2cnc(N3CCOCC3)nc21	-10%
O=Cc1ccc2[nH]ccc2c1	5%
C#C[C@@]1(O)CCC2C3CCc4cc(O)ccc4C3CC[C@@]21C (stereo partly specified)	-19%
COc1ccccc1CN1Cc2cccc3c2[C@@H](CC1=O)[C@H](O)[C@H](O)C3	?
CN1CCN(c2ncc3ncc(=O)n(CCc4ccccc4)c3n2)CC1	-8%
COCCn1c(=O)c(-c2ccccc2)nc2cnc(N3CCN(C)CC3)nc21	-10%
O=C(O)Cc1cc(I)c(Oc2ccc(O)c(I)c2)c(I)c1	8%[29.6 µM]
COc1ccc(SC[C@H](Cc2ccccc2)N2CC[C@@H](NC(=O)OCc3ccccc3)CCC2=O)cc1	?
CCCc1c(-c2ccc(O)cc2)nn(-c2ccc(O)cc2)c1-c1ccc(O)cc1	?
FC(F)(F)c1ccccc1-c1cc(NCc2ccccc2)ncn1	?
Oc1ccc2c(c1)OC(c1ccc(O)c(O)c1)C(O)C2 (stereo unspecified)	-21%
COC(=O)[C@@H]1CCCN1C(=O)c1cnn(-c2ncc3c(n2)-c2ccccc2CCC3)c1C1CC1	-12%

Looked up above.
C#C[C@@]1(O)CCC2C3CCc4cc(O)ccc4C3CC[C@@]21C (stereo partly specified) @ EPAC2 ant val: -19%
O=Cc1ccc2[nH]ccc2c1 @ EPAC2 ant val: 5%
CN1CCN(c2ncc3ncc(=O)n(CCc4ccccc4)c3n2)CC1 @ EPAC2 ant val: -8%
O=C(O)Cc1cc(I)c(Oc2ccc(O)c(I)c2)c(I)c1 @ EPAC2 ant val: 8%[29.6 µM]

(listing goes on)
SMILES	EPAC2 ant val
COc1ccc(CCN(C)CCCN2CCc3cc(OC)c(OC)cc3CC2=O)cc1OC	-4%
COc1cc(-c2cnc3ccccc3c2)cc2c1OCCN(C(=O)Cn1nccc1C)C2	4%
O=C(c1ccncc1)N1CCC2(CC1)CCN(C(c1ccccc1)c1ccccc1)CC2	-21%
CN1C(C(=O)Nc2ccccn2)=C(O)c2ccccc2S1(=O)=O	-8%
CCCCCCCCCCCCCCCCOCC(COP(=O)([O-])OCC[N+](C)(C)C)OC (stereo unspecified)	-9%[11.4 µM]
O=C1Cc2cc(CCN3CCN(c4nsc5ccccc45)CC3)c(Cl)cc2N1	14%&14%
O=C(c1ccc(Cn2cnnn2)cc1)N1CCOc2ccc(C(O)C3CCCCC3)cc2C1 (stereo unspecified)	?
Cc1cc2c(c(-c3ccc(Cl)cc3)c1)OC(CNC(=O)CCC(=O)N(C)C)C2 (stereo unspecified)	?
CC(=O)c1ccc(-c2ccc3c4c(ccc3c2)OC(CNC(=O)[C@@H]2CCCN2C(C)=O)C4)s1 (stereo partly specified)	?
COc1cccc(Cn2c(=O)c(-c3ccc(F)cc3)nc3cnc(OC)nc32)c1	6%
COc1ccccc1/C=c1/[nH]c(=O)/c(=C\c2ccccc2OC)[nH]c1=O	40%[activator]
CCCC[C@H]1COCCS(=O)(=O)N1Cc1ccc(F)cc1	?
CCc1cc(Cl)c(OC)c(C(=O)NC[C@@H]2CCCN2CC)c1O	427%[activator]
O=C(c1cccnc1)C1CCCN(Cc2ccc3c(c2)CN(C(=O)c2ccc4[nH]ccc4c2)CCO3)C1 (stereo unspecified)	?
CC(=O)[C@H](CC(C)C)NC(=O)[C@@H](CC(C)C)NC(=O)[C@H](CC(C)C)NC(=O)OCc1ccccc1	-31%
CC1=C(/C=C/C(C)=C/C=C/C(C)=C/C=C/C=C(C)/C=C/C=C(C)/C=C/C2=C(C)CCCC2(C)C)C(C)(C)CCC1	8%
COc1cccc(-c2cc(NCc3ccc(OC)cc3OC)ncn2)c1	?
CCCCCCCCCCC/C=C\C/C=C\CCCC(=O)O	2%[11.4 µM]
CC1(C)NC(=O)N(c2ccc([N+](=O)[O-])c(C(F)(F)F)c2)C1=O	?
CC(=O)O[C@H]1C[C@H]2CC[C@@H]3[C@H]4C[C@@H]([N+]5(C)CCCCC5)[C@@H](OC(C)=O)[C@]4(C)CC[C@@H]3[C@@]2(C)C[C@@H]1[N+]1(C)CCCCC1	-19%
COc1cc2c(cc1OC)C1CCC3=C([C@H](C)OC3=O)N1CC2 (stereo partly specified)	26%
O=S(=O)(NCc1nnc2n1CCN(Cc1ccccc1Cl)CC2)c1ccccc1	-22%
COc1ccc(-c2coc3cc(OC)cc(OC)c3c2=O)cc1	?
O=S1(=O)CCOCCCN1Cc1cccc(F)c1	8%
O=c1c(-c2ccc(Cl)cc2)nc2cnc(N3CCNCC3)nc2n1Cc1ccc(F)cc1	?
COc1c2c(cc3c1C(NC(N)=O)[N+](C)(C)CC3)OCO2 (stereo unspecified)	11%
COc1cc(OC)c(OC)cc1CN1CCCC(c2nc(C)ncc2-c2ccc(F)cc2)C1 (stereo unspecified)	-5%
NCC1OC(O[C@H]2[C@H](O)[C@@H](OC3C(O)C(N)CC(N)C3OC3OC(CO)C(O)C(O)C3N)O[C@@H]2CO)C(N)C(O)C1O (stereo partly specified)	-14%
Cc1ccccc1-c1nc(N2CCNCC2)c2ccccc2n1	-25%
COc1cccc(CNC(=O)c2c(OC)cc(=O)n3c2CCN(C(=O)c2ccc(Cl)cc2)CC3)c1	-1%
CN(C)c1ccc(C(=O)N2CCCC(Cn3cc(C(=O)N4CCCC4)nn3)C2)cc1 (stereo unspecified)	?
CO[C@H]1C[C@@H]2CC[C@@H](C)[C@@](O)(O2)C(=O)C(=O)N2CCCC[C@H]2C(=O)O[C@H]([C@H](C)C[C@@H]2CC[C@@H](O)[C@H](OC)C2)CC(=O)[C@H](C)C=C(C)[C@@H](O)[C@@H](OC)C(=O)[C@H](C)C[C@H](C)/C=C/C=CC=C1C	?
CNC(=O)[C@H]1O[C@H](n2cnc3c(NCc4cccc(I)c4)nc(Cl)nc32)[C@@H](O)[C@@H]1O	?
O=C(O)/C=C1\CCCc2ccccc2C1O (stereo unspecified)	-6%
O=C(O)c1cccnc1C(=O)O	-10%&11%&-12%
CC(C)C1=CC2=CC[C@@H]3[C@@](C)(C(=O)O)CCC[C@]3(C)C2CC1 (stereo partly specified)	?
C#CCOc1ccc2c(C)cc(=O)oc2c1	19%
C=C1C2CC[C@@]3(C)C(c4ccoc4)OC(=O)C[C@@]13OC1CC(O)C(C)(C)C(CC(=O)OC)[C@@]12C (stereo partly specified)	-23%&-16%
Fc1ccc(Nc2ccnc(-c3ccoc3)n2)cc1	-15%
CSc1ccc2c(c1)N(CCC1CCCCN1C)c1ccccc1S2 (stereo unspecified)	16%&-18%&-25%
COc1ccccc1CCNc1ncnc2sc(C(=O)N3CCCCC3)c(C)c12	3%
CC(C)C[C@@H](CSc1ccccc1)N1CCN(C)CCC1=O	-20%
CCn1c(-c2cccc(OC)c2)nc2cc(NC(C)=O)cc(C(=O)N3CCC[C@H]3C(=O)OC)c21	-7%
Cc1cc(C)cc(C(=O)N(C)[C@H](Cc2ccc(-c3ccccc3)cc2)C(=O)N[C@@H](Cc2c[nH]c3ccccc23)C(=O)O)c1	?
O=C(O)CCCC/C=C(\c1ccccc1)c1cccnc1	-4%

Two records picked at random from the list so far:
SMILES	EPAC2 ant val
CNC(=O)[C@H]1O[C@H](n2cnc3c(NCc4cccc(I)c4)nc(Cl)nc32)[C@@H](O)[C@@H]1O	?
O=S(=O)(NCc1nnc2n1CCN(Cc1ccccc1Cl)CC2)c1ccccc1	-22%

(continued)
SMILES	EPAC2 ant val
CC(C)CN1CCC(=O)N([C@H](CN=[N+]=[N-])Cc2ccccc2)CC1	-1%
COC(=O)[C@H]1[C@H]2C[C@H]3c4[nH]c5ccccc5c4CCN3C[C@H]2CC[C@@H]1O	10%&2%
O=C1c2ccccc2C(=O)C1c1ccc(Br)cc1	?
NCCCCCCCCCCNS(=O)(=O)c1cccc2c(Cl)cccc12	-12%
Nc1ccc(/C=C/c2ccc3ncccc3c2)cc1	-11%
CC(C)c1cc(/C=C(\C#N)C(=O)NCCCc2ccccc2)cc(C(C)C)c1O	-19%
N[C@H](C(=O)O)[C@@H]1C[C@@H]1C(=O)O	-14%&-20%
COc1ccc2c(c1)CCc1cnc(-n3ncc(C(=O)NCCN4CCOCC4)c3C)nc1-2	-25%
NC(=O)CNCCC(c1ccccc1)c1ccccc1	-14%
O=C(c1cccc(F)c1)N1CCC2(CCCN(c3ccncc3)C2)CC1	-29%
COC(=O)C(C)c1ccc(C(=O)c2cccs2)cc1 (stereo unspecified)	-22%
C=C1c2c(Cl)ccc(O)c2C(O)=C2C(=O)[C@]3(O)C(O)=C(C(N)=O)C(=O)C(N(C)C)C3C(O)C12 (stereo partly specified)	-13%
CC1(C)S[C@@H]2[C@H](NC(=O)[C@H](N)c3ccccc3)C(=O)N2[C@H]1C(=O)OCOC(=O)[C@@H]1N2C(=O)C[C@H]2S(=O)(=O)C1(C)C	1%
C[C@@H]1CN(Cc2ccc3c(c2)CN(Cc2nc(-c4ccccc4)cs2)CCO3)C[C@H](C)O1	-7%
CN(C)c1ncc2nc(-c3ccc(F)cc3)c(=O)n(CCC#N)c2n1	-8%

A draw from above in order of heavy-atom count, rising.
SMILES	EPAC2 ant val
N[C@H](C(=O)O)[C@@H]1C[C@@H]1C(=O)O	-14%&-20%
COC(=O)C(C)c1ccc(C(=O)c2cccs2)cc1 (stereo unspecified)	-22%
NC(=O)CNCCC(c1ccccc1)c1ccccc1	-14%
NCCCCCCCCCCNS(=O)(=O)c1cccc2c(Cl)cccc12	-12%
C[C@@H]1CN(Cc2ccc3c(c2)CN(Cc2nc(-c4ccccc4)cs2)CCO3)C[C@H](C)O1	-7%
C=C1c2c(Cl)ccc(O)c2C(O)=C2C(=O)[C@]3(O)C(O)=C(C(N)=O)C(=O)C(N(C)C)C3C(O)C12 (stereo partly specified)	-13%
CC1(C)S[C@@H]2[C@H](NC(=O)[C@H](N)c3ccccc3)C(=O)N2[C@H]1C(=O)OCOC(=O)[C@@H]1N2C(=O)C[C@H]2S(=O)(=O)C1(C)C	1%

Following part:
SMILES	EPAC2 ant val
CCOC(=O)N(C(=O)c1ccccc1)c1ccccc1	?
CC1=C(/C=C/C(C)=C/C=C/C(C)=C/CO)C(C)(C)CCC1	-10%&-8%&-25%&-22%
COc1ccc(C(=O)N2CCC[C@@]3(CCN(C(=O)Nc4ccccc4)C3)C2)cc1	-25%
O=c1c(-c2ccccc2)nc2cnc(N3CCOCC3)nc2n1C1CC1	-23%
Clc1ccccc1C(c1ccccc1)(c1ccccc1)n1ccnc1	11µM*!
Cn1c(NCCN(CCO)CCCc2ccc([N+](=O)[O-])cc2)cc(=O)n(C)c1=O	0%
COc1ccc(-c2cc(C(=O)N3CCc4c(cnc(C)c4CNC(=O)c4ccsc4)C3)[nH]n2)cc1	-11%
COc1ccccc1CNCCCCCCNCCCCCCCCNCCCCCCNCc1ccccc1OC	-14%&-20%
CC(=O)C[C@H]1c2ccccc2S(=O)(=O)N1c1ccccc1	-2%
O=C(Oc1ccccc1)N1CCC2(CC1)CCN(c1ccccn1)CC2	-36%
COc1cc(OC)c2nc(-c3cc4c(c(OC)c3)OCCN(Cc3cn(C)nc3C)C4)cc(C)c2c1	-6%
O=C(c1cnccn1)N1CCC2(CCCN(c3ccccn3)C2)CC1	-24%
COC(=O)C1=C(C#N)NC(C)=C(C(=O)OC(C)C)C1c1cccc([N+](=O)[O-])c1 (stereo unspecified)	?
O=C(C[n+]1ccnc2ccccc21)c1ccc(Cl)cc1	13%
CC(C)c1c(C(=O)Nc2ccccc2)c(-c2ccccc2)c(-c2ccc(F)cc2)n1CC[C@@H](O)C[C@@H](O)CC(=O)O	-20%
COc1cccc(-c2cc(=O)c3ccc(OC)cc3o2)c1	-11%
COC(=O)[C@H](CC(C)C)NS(=O)(=O)NC(=O)OC(C)(C)C	10%
C[C@@H](CN1CCC(Cc2ccccc2)CC1)[C@@H](O)c1ccc(O)cc1	?

Source: PubChem
